CtBP-E1A inh: blocks the CtBP interaction with E1A; AlphaScreen GST-E1A/His-CtBP binding, 1536-well; hits give low values; control for the full effect not named in the record; activity change, % (concentration not given with the values); 0.49% of 340,000 active; AID 651724; in the data active means activity change below about -65%; inconclusive means about -30% to -65%; inactive means above about -30%; also: % is scaled to controls: 0 for no effect and ±100 for the full control effect
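Protein mix (5X: 125 nM each GST-E1A, His-CtBP) was incubated with pinned compound 2 h at 37 deg C in dark, in 50 mM Tris pH 8.0 buffer with 300 mM NaCl. Glutathione donor and nickel acceptor beads followed; AlphaScreen signal read after 1 h.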
Menin MLL FP FL: displaces fluorescein MLL peptide from human menin. Fluorescence polarization, fluorescein-MLL peptide displacement from menin. FP activity change, % at 61.4 µM. 290,000 tested, under 10 active. AID 1766; inconclusive = falling polarisation curve, or a change in total fluorescence; inactive = total fluorescence flat and polarisation flat or rising; no compound was filed as active; the % refers to the polarisation; negative = inhibition;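 also: % of control where 0% means no effect; inhibitors lower the polarisation; unlabelled MLL peptide was the positive control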
TRPV1 PAM: enhances activation of the human vanilloid receptor TRPV1; Q8NER1; TRPV1-expressing cells, Fluo-8 calcium influx, capsaicin EC20 potentiation; host cell line not named in the record; control for the full effect not named in the record; potentiation, % at 8.33 µM; 0.02% of 320,000 active; AID 540277; active means potentiation above 80%; inconclusive means 30% to 80%; inactive means below 30%; also: 0% is about no effect
Target sequence (Q8NER1 whole entry, looked up): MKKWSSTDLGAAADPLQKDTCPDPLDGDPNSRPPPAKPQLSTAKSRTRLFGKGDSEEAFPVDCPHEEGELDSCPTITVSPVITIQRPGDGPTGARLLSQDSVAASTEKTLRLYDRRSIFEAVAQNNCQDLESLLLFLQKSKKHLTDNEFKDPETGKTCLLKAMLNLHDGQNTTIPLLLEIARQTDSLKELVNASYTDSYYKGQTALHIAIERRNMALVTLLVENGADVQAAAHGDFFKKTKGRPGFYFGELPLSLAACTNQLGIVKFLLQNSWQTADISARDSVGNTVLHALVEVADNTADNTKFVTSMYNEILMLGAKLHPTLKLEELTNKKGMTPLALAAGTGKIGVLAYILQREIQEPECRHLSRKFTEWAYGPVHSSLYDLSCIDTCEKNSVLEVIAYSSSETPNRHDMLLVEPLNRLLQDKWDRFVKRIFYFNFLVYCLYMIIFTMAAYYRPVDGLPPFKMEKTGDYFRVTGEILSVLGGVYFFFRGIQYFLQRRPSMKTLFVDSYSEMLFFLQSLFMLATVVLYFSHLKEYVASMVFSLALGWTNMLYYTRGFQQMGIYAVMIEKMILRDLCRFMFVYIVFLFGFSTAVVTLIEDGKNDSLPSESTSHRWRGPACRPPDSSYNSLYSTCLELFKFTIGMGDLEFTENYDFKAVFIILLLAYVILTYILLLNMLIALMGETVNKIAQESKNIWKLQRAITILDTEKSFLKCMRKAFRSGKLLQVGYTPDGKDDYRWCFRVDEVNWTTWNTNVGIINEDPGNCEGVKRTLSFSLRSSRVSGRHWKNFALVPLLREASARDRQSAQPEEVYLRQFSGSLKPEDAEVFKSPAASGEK
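Fluo-8 calcium influx in TRPV1-expressing cells, kinetic read (ex 480/em 520 nm). Compound added and read 3 min for agonist activity, followed by capsaicin at EC20 final and 2 min further read for enhancement.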
gsp antagonist: gsp mutant antagonism | gsp-mutant cells, cAMP HTRF, 30 min; control for the full effect not named in the record | Potency, µM (highest dose often 76.9 µM), without a hit: at the highest dose activity change, negative = inhibition, usual class: inhibitors | 0.4% of 340,000 active | AID 624288; active = falling curve of any shape with a large fitted effect; inconclusive = falling curve, mostly with a smaller effect; inactive = flat or rising curve; cell line not stated here;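 also: intracellular cAMP measured with PDE inhibitor Ro 20-1724 present during compound exposure; potency is read from the fitted curve at half-maximal effect; % is scaled to controls: 0 for no effect and ±100 for the full control effect; nearly all actives have a fitted effect of over 65% in size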
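Measurement of cellular cAMP by homogeneous time-resolved fluorescence following a 30 min compound exposure at 37C. The PDE inhibitor […] was present throughout; the assay buffer was DPBS with 0.05% BSA and 0.005% Tween 20.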
gsp agonist: activates gsp, the McCune-Albright syndrome mutation; gsp mutant cells, cAMP HTRF, 30 min; control for the full effect not named in the record; Potency, µM (highest dose often 76.9 µM), for inactives: top-dose activation (cAMP increase), hits mostly activators; 0.13% of 340,000 active; AID 624287; active = well fitted activation curve with a large enough effect; inconclusive = small, poorly fitted or top-dose-only effect, or another doubt; inactive = no such curve, though single readings can be large or run the other way; cell line not stated here;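 also: phosphodiesterase inhibitor Ro 20-1724 added with compounds to block cAMP breakdown; potency is read from the fitted curve at half-maximal effect; nearly all actives have a fitted effect of over 60% in size; about a fifth of the inactives were tested at one dose only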
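Cells in DMEM/10% FBS with G418 were pretreated with compounds in DMSO plus […] (300 uM stock) for 30 min at 37C. cAMP was measured by HTRF (cAMP-d2 plus anti-cAMP antibody-K) after 30 min at room temperature.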
Sfp PPTase inh: blocks B. subtilis Sfp PPTase activity; Q9F4F7; Biochemical Sfp PPTase activity, qHTS; Potency, µM, for the others: max response, negative = inhibition, usual class: inhibitors; 3.5% of 310,000 active; AID 1490; active = well fitted inhibition curve with a large enough effect; inconclusive = small, poorly fitted or top-dose-only effect, or another doubt; inactive = no such curve, though single readings can be large or run the other way;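 also: the enzyme is Sfp with the accession as filed and its product quenches rhodamine fluorescence; potency is read from the fitted curve at half-maximal effect; 0% = enzyme reaction without inhibitor and -100% = no enzyme wells; top concentration of the series not given in the record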
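Fluorescence-quenching assay with 15 nM Sfp, 5 uM rhodamine-CoA and 12.5 uM BHQ-2-labelled ybbR peptide in pH 7.6 Hepes/MgCl2 buffer. Enzyme was pre-incubated with compound for 15 min at room temperature. Rate was taken from the 30-min fluorescence change (525/598 nm).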
ClpP mod: qHTS Assay for Activators of ClpP; Potency, µM (top dose mostly 57.5 µM), without a hit: at the highest dose activity change, negative = active; purified B. subtilis ClpP, FRET peptide cleavage, 20 min; 1.9% of 340,000 active; ATP-dependent Clp protease proteolytic subunit (Bacillus subtilis (strain 168)), P80244; active = well fitted falling curve with a large enough effect; inconclusive = small, poorly fitted or top-dose-only effect; inactive = no such curve, though single readings can be large or run the other way; also: potency is read from the fitted curve at half-maximal effect; the source files actives as falling curves though it sought activators and does not explain the sign; nearly all actives have a fitted effect of over 65% in size; many hits overshoot -100%
Target sequence (P80244 whole entry, looked up): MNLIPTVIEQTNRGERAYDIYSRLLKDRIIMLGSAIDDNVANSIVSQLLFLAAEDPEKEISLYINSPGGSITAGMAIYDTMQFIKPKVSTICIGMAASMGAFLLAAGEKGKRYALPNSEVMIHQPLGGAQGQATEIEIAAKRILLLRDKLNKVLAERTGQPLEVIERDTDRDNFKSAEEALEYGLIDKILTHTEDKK
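Buffer: 100 mM Tris/HCl pH8, 100 mM KCl, 0.05% low protease BSA, 2.5% glycerol, 0.01% Tween-20. ClpP 10 microg/mL final; 20 min RT; delta FRET normalized to ADEP and DMSO controls.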
* = called active by the depositor; u = inconclusive; x = not tested or not shown; & = joins results of further samples; [ ] = another dose, or the depositor's remark.

SMILES	CtBP-E1A inh	Menin MLL FP FL	TRPV1 PAM	gsp antagonist	gsp agonist	Sfp PPTase inh	ClpP mod
c1ccc(-c2csc(Cc3nnc4n3CCCCC4)n2)cc1	9	0.9	u	9%	16%	6%	-1.0%
O=C(COC(=O)CSc1nnc(-c2ccc(Cl)cc2)o1)Nc1cc(Cl)cc(Cl)c1	8	1.3	-5	-8%	-1%[15.4 µM]	-27%	x
Cc1ccc(SCC2=NN(c3nc(C)cc(C)n3)C(=O)C2)cc1	-3	1.1	2	10%	0%[15.4 µM]	-4%	x
CC(C)(C)NC(=O)CSc1nc2ccccc2n1-c1ccccc1	-5	5.1	-23	-11%	-11%	50µM*	-2.8%
COCCN=C(NS(=O)(=O)c1cccs1)c1ccccc1Cl	x	x	x	6%	0%	x	0.5%
Nc1ccc(S(=O)(=O)NNC(=O)C(=O)NNc2ccccc2)cc1	6	4.4	-6	9%	6%[15.4 µM]	0%	-2.8%
CCCCN(Cc1ccccc1)S(=O)(=O)c1ccc2[nH]c(=O)oc2c1	16	2.2	16	-12%	32%	9%	1.2%
CC(=O)c1cc2c(cc1N/C(=N/S(=O)(=O)c1ccc(Br)cc1)c1ccccc1)OCO2	20	7.7	-6	-12%	u	10%	-16%
COc1ccc(Cn2ccnc2SCC(=O)Nc2cccc(NC(C)=O)c2)cc1	-13	0.6	8	-2%	0%[15.4 µM]	18%	-3.5%
COC(=O)[C@@]1(Cc2ccc(OC)cc2)[C@H]2c3cc(C(=O)N(C)C)n(C[C@H](O)CO)c3C[C@H]2CN1C(=O)c1ccccc1	-1	2.4&-1.3	-7	2%	-35%[inhibitor]	4%&15%	-2.5%
CCC(C(=O)NCc1ccco1)n1nc(C)c2c(C)n(-c3ccccc3)nc2c1=O (stereo not given)	-5	x	-1	-8%	17%	4%	-2.2%
O=C1C(=O)N(CCS(=O)(=O)c2ccccc2)c2ccccc21	x	-2.2	0	5%	11%	16%	-0.6%
CC1CC(C)CN(S(=O)(=O)c2ccc(C(=O)N3CCCC3)cc2)C1 (stereo not given)	-2	x	-6	-1%	-3%	11%	-1.5%
O=C(CCN(NC(=O)c1ccccc1)C1=NS(=O)(=O)c2ccccc21)NC1CCCCC1	5	-1.9	-9	3%	6%	3%	-0.3%
COc1ccc(C(NC(C)=O)c2nccc3cc(OC)c(OC)cc23)cc1OC (stereo not given)	0	1.0	1	-23%	-35%[inhibitor]	2%	34%
O=C(O)CN1C(=O)CNC1=O	10	1.4	-6	18%	10%	3%	0.6%
O=[N+]([O-])c1cc(-c2ccc(/C=N/c3nc4ccccn4c3-c3ccco3)o2)ccc1Cl	-10	-4.3	-31	-17%	-22%	u	u
O=C(c1cc(Cl)nc2ccccc12)N1CCN(Cc2ccc3c(c2)OCO3)CC1	-2	x	-6	0%	-2%[15.4 µM]	x	0.1%
Cc1cccc(-c2cc(C(=O)NCc3ccccn3)c3ccccc3n2)c1	21	-0.6	18	-13%	-31%[inhibitor]	-8%	-0.9%
COc1cccc(/C=N/Nc2nc3ccccc3[nH]2)c1OC	-11	-1.8	-19	-21%	6%[15.4 µM]	u	-0.5%
CCOC(=O)CNC(=O)CNC(=O)c1nn(-c2ccc(OC)c(OC)c2)c(=O)c2ccccc12	x	-6.2	3	7%	6%	-4%	-0.4%
Cc1ccc(S(=O)(=O)N(C)C)cc1NC(=O)COC(=O)C1CC1	2	x	3	0%	-6%	x	-17%
Cc1ccc(C(CNC(=O)Nc2ccc(Cl)cc2)N2CCN(C)CC2)cc1 (stereo not given)	-12	4.7	10	6%	u	11%	-0.6%
NNC(=S)NCc1ccc2c(c1)OCO2	0	0.1	4	10%	-9%	17%	0.3%
CCOc1ccc(C(=O)Nc2ccc3c(c2)OCCO3)cc1[N+](=O)[O-]	0	-0.1	-12	6%	-2%[15.4 µM]	9%	x
COc1cc(OC)nc(NC(=O)NS(=O)(=O)c2ccccc2Cl)n1	-1	1.0	-13	14%	-4%[15.4 µM]	5%	x
Cc1ccc(NC(=O)NC2(C(=O)NCc3ccccc3)CCCCC2)cc1	7	3.6	26	-3%	-35%	18%	1.0%
COc1ccc(Oc2cc(C)c3cccc(C)c3n2)cc1	46	-0.1	14	7%	-10%	4%	u
CC(C)CCn1c(SCC(=O)c2ccccc2)nc2c1c(=O)[nH]c(=O)n2C	-2	-0.1	1	1%	1%	6%	1.0%
CCc1nnc(NC(=O)c2oc3ccc(Br)cc3c2C)s1	-10	x	x	-3%	u	x	x
COc1ccc(C(OC(=O)c2ccco2)C(=O)NC2CCCCC2)cc1 (stereo not given)	5	-5.9	1	3%	-8%	15%	1.7%
Cn1c(SCC(=O)N2CCCC2)nc2ccccc21	2	-1.4	1	16%	u	4%	0.7%
O=C(Nc1ccc2c(c1)CCC2)c1cnc(Cl)c(Cl)c1	10	-3.8	1	-15%	-14%[15.4 µM]	8%	x
CNC(=O)c1nnsc1S(=O)c1ccc(Cl)cc1 (stereo not given)	-3	-1.2	9	-30%	12%[15.4 µM]	13µM*	x
COc1ccc(NC(=O)c2ccc(Cl)c(NC(=O)c3ccncc3)c2)cc1	x	2.3	7	x	x	11%	x
CCNc1nc(Oc2ccc(C(=O)OC)cc2)nc(N2CCOCC2)n1	7	-0.2	-10	9%	17%[15.4 µM]	7%	x
CCCCn1c(=O)[nH]c(=O)c2c1nc(CN1C(=O)c3ccccc3S1(=O)=O)n2CCC	-1	u	-6	-2%	16%	8%	-1.0%
CC(=O)c1ccc(OCc2cc(C(=O)N3CCN4CCCC4C3)no2)cc1 (stereo not given)	8	-0.6	2	0%	-8%	10%	-2.4%
COCC(C)n1c(C)cc(C(=O)CSc2nc(C)c(C)c(C)n2)c1C (stereo not given)	-2	4.0	1	-3%	7%	u	-0.1%
CCOC(=O)N1CCN(c2cc(=O)n(-c3ccc(Br)cc3)c(=O)[nH]2)CC1	3	2.5	3	4%	-54%[inhibitor]	6%	-1.1%
O=C(NCc1ccccc1Cl)C1CCN(c2cnccn2)CC1	-2	-1.3	-4	-9%	16%	13%	-10%
Cc1ccc(OCC(=O)Nc2ccccc2N2CCOCC2)c(C)c1	2	-0.7	1	-4%	-15%	-21%	0.4%
CCOCCCNC(=O)c1ccc2c(c1)N(Cc1ccccc1)C(=O)CS2=O (stereo not given)	3	-2.3	18	3%	2%	-10%	1.9%
COc1ccccc1CCNC(=O)CCSc1nc(-c2ccco2)cc(C(F)(F)F)n1	2	16	-1	-13%	6%	56µM*	0.2%
CCOC(=O)c1c(/N=C/c2ccc(O)cc2O)sc2c1CCC2	x	3.4	3	x	x	-11%	x
Oc1ccc(/C=N/n2c(COc3ccccc3)n[nH]c2=S)c(O)c1	-13	-0.4	-6	u	-3%	56µM*	-2.3%
COCC(=O)N(C)C1(c2nnnn2CCOC(=O)Nc2ccc(Cl)cc2)CCCCC1	x	-1.1	-5	1%	-40%[inhibitor]	-1%	0.0%
CC(=O)Nc1ccc(NC(=O)C(C)OC(=O)c2ccccc2NS(=O)(=O)c2cccs2)cc1 (stereo not given)	4	-0.3	1	-4%	-34%[15.4 µM]	4%	x
CCCN(CC(=O)Nc1ccccc1C)C(=O)c1cc2ccccc2oc1=O	2	x	x	x	0%	x	-21%
COc1ccc(C(=O)NCCSCc2ccccc2Cl)cc1OC	-13	-0.3	-10	-12%	-2%[15.4 µM]	2%	-6.4%
O=C(CC1C(=O)NCCN1Cc1ccccc1)NCCCOc1cccnc1 (stereo not given)	10	-8.7	-7	-2%	-4%[15.4 µM]	0%	0.7%
CN(C)c1oc(COc2ccc(F)cc2)nc1C#N	2	4.1	-1	-3%	-41%[inhibitor]	20%	1.0%
COc1ccc(CC(=O)OCC(=O)Nc2ccc3c(c2)OCO3)cc1	-3	1.5	-5	-1%	10%[15.4 µM]	13%	x
COc1ccc(CC(=O)N/N=C(\C)c2ccc(Br)s2)cc1	9	x	x	9%	3%[15.4 µM]	x	0.4%
CCN1CC=C2C(C#N)=C(N)C(C#N)(C#N)[C@H](c3cccc(OC)c3OC)[C@H]2C1	-4	u	-4	-8%	12%	-7%	u
Cc1c(=O)n(OCc2cccc(F)c2)c2ccccc2[n+]1[O-]	22	4.5	-10	2%	-4%	4%	-18%
CCN(CC)C(=O)c1cccc2nc3ccccc3nc12	0	5.3	8	9%	12%[15.4 µM]	15%	0.2%
CC(=O)N1CCN(CC(=O)Nc2ccc(C)c(S(=O)(=O)N(C)C)c2)CC1	-1	3.2	-6	-4%	-12%[15.4 µM]	-17%	1.7%
COc1ccc(CC(=O)Nc2cc(S(=O)(=O)N3CCCCC3)ccc2C)cc1OC	-13	0.2	4	x	3%[15.4 µM]	9%	x
CC(Sc1nnc(-c2ccncc2)n1C)C(=O)NCC(=O)Nc1ccc(F)c(F)c1F (stereo not given)	5	x	x	x	-76%[inhibitor]	x	0.5%
The listing continues:
SMILES	CtBP-E1A inh	Menin MLL FP FL	TRPV1 PAM	gsp antagonist	gsp agonist	Sfp PPTase inh	ClpP mod
O=C1CC(c2cccs2)c2cc3c(cc2N1)OCCO3 (stereo not given)	8	2.6	-4	-3%	-7%	10%	1.0%
CC(=O)ONC(=Nc1ccccc1)c1nonc1N	0	1.7	11	8%	4%	1%	x
CCCN(CCC)C(=O)Cn1c2ccccc2c2nc(=O)cc(C)n21	8	3.7	-4	1%	-45%[inhibitor]	2%	-29%
O=C(N/N=C/c1ccc(O)cc1)c1nc(-c2ccccc2)n(-c2ccccc2)n1	-21	x	-8	-6%	-3%	29%	-17%
COc1ccc(-c2nc(SC)n(S(=O)(=O)c3ccccc3)n2)cc1	8	-1.1	7	-7%	-49%[inhibitor]	-5%	1.0%
Cc1ccccc1N(C(=O)c1csnn1)C(C(=O)NC(C)(C)C)c1cccs1 (stereo not given)	-2	0.2	4	-6%	-4%[15.4 µM]	10%	x
O=C(NCc1ccc(/C=N\NC(=O)C(=O)Nc2ccccc2Br)o1)C(=O)Nc1ccccc1	x	u	27	7%	-48%[inhibitor]	3%	-0.2%
